Bioassay records (PubChem)
HSV augment – HSV replication enhancement | 220,000 compounds, 0.005% hits | maximum fold increase | HSV replication augmentation in cells, fold increase | AID 1956;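 active = peak rise of 1.5-fold or more in the series; tested in PC3 cells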;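 note: first round at 10 µM; read as green reporter fluorescence; hits show the peak of a series up to 25 µM; 1 = signal of infected wells without compound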
INS promoter inh – TRM-6 insulin promoter activity inhibition; 130,000 compounds, 0.9% hits; inhibition, % at 2 µM; TRM-6 cells (human fetal islet line), insulin promoter-eGFP reporter, imaging; reporter expression induced with tamoxifen;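 active = inhibition above the mean plus 3 SD, with well images judged a real hit on visual review, cut at about 60% in these data, passing the limit was not always enough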
RGS16-Gao HTS – modulates binding between human RGS16 and Galphao; AID 1441; bead-based flow cytometry RGS16-Galphao binding, fluorescence; actives lie on both sides; binding response (% of control), % at 10 µM; 220,000 compounds, 0.38% hits;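 active = below 25% or above 175%, edge rows of some plates excepted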;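 note: Galphao activated by GDP with aluminum fluoride before binding; 100% = wells without compound and 0% = beads without RGS; some results beyond the cut were filed as inactive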
PKD1 kinase inh – PKD1 (human) kinase inhibition | PKD1 kinase fluorescence polarization assay | 200,000 compounds, 0.056% hits | AID 797 | Q15139 | inhibition, %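 (about 10 µM by stock and volumes)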;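 active = inhibition of 50% or more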;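 note: controls were vehicle for no effect and a reference inhibitor for full effect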
Target sequence (Q15139 whole entry, looked up): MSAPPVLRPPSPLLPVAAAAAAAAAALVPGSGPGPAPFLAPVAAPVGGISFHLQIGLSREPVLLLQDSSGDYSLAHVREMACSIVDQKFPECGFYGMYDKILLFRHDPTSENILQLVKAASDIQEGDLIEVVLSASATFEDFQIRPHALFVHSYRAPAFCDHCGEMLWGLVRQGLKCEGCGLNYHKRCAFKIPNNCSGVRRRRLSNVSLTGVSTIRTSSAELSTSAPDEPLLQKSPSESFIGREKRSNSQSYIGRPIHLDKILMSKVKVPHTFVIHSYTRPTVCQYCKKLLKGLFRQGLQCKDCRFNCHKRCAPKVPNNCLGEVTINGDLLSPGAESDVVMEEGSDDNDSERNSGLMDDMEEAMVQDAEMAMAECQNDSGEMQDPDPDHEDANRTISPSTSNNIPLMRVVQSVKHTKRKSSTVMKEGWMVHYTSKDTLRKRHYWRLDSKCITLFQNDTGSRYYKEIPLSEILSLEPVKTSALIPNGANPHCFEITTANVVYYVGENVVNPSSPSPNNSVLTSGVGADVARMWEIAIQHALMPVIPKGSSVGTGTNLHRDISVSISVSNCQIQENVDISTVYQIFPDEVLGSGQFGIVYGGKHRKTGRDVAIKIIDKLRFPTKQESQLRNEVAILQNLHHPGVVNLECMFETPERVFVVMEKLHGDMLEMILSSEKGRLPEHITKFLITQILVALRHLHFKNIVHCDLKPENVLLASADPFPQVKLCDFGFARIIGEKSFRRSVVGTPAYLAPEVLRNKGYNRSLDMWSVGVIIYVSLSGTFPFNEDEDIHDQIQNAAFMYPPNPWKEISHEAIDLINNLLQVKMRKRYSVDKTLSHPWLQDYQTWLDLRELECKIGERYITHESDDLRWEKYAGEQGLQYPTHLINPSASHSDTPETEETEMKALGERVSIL
GALR2 agonist – GALR2 (human) receptor agonism; O43603; GALR2-expressing cells, agonist activation read-out; activation, %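 (tested at 5 µM)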; 140,000 compounds, 0.48% hits; AID 803;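 active = above mean plus 3 SD of all compounds, about 5% in these data, not always enough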;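 note: 0% = vehicle buffer wells and 100% = reference agonist at full effect; tested in CHO reporter cells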
INS promoter inh cell count – recorded beside INS promoter inh, whose call it bears; normalized cell count, %; measured here: cell count, toxicity; reference of the scale not given here;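 cells exposed to compound for 48 h; stained nuclei by imaging scaled within each plate; lower means fewer cells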
HSV augment primary fold – second read-out of HSV augment, no call of its own (marks repeat the call); fold increase; compound at 10 µM; measured here: primary screen fold increase 10 uM; tested in PC3 cells;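 GFP signal in the first replicate; 1 = infected wells without compound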
* marks the source's active call; other numbers are inactive results; i = inactive; / = not tested or not shown.

SMILES | HSV augment | HSV augment primary fold | INS promoter inh | INS promoter inh cell count | RGS16-Gao HTS | PKD1 kinase inh | GALR2 agonist
O=C(COC(=O)CCN1C(=O)/C(=C\C=C\c2ccccc2)SC1=S)Nc1ccc(Br)cc1 | i | 0.87 | 37 | 141 | 101 | -2 | /
Cn1c(=O)c2c(nc(-n3ccnc3)n2Cc2ccc(Cl)cc2Cl)n(C)c1=O | i | 0.93 | / | / | 99 | -2 | -2.6
O=C(COC(=O)c1cc(S(=O)(=O)N2CCOCC2)c(Cl)cc1Cl)Nc1ncc(C(F)(F)F)cc1Cl | i | 0.95 | 24 | 88 | 106 | 3 | -0.6
COc1ccc(C2C3=C(CC(C)(C)CC3=O)Nc3c2c(=O)[nH]c(=O)n3Cc2ccccc2)cc1OC (stereo unspecified) | i | 1.1 | 19 | 98 | 99 | 4 | 0.1
COc1ccccc1Nc1nc(N)nc(CN2CCOCC2)n1 | i | 0.92 | / | / | 99 | 4 | -2.1
Cc1ccc(S(=O)(=O)N2CCOCC2)cc1NC(=O)CNCc1ccccn1 | i | 0.89 | / | / | 107 | / | /
NC(=O)c1cccc(S(=O)(=O)N2CC(c3ccccc3)CC2=O)c1 (stereo unspecified) | i | 1.1 | / | / | 94 | -8 | -1.4
CC(C)Nc1nc2cccnc2s1 | i | 1 | / | / | 98 | / | /
CCC(c1nnnn1Cc1ccccc1)N1CCN(c2ccc(OC)cc2)CC1 (stereo unspecified) | i | 0.88 | 60 | 104 | 108 | 1 | /
Cc1occc1C(=O)Nc1nn[nH]n1 | i | 0.95 | 92* | 17* | 105 | -1 | -1.4
O=C(O)c1ccc2c(c1Sc1ccccc1)C(=O)c1ccccc1C2=O | i | 1 | / | / | 104 | / | /
COc1ccc(C(C)C)cc1S(=O)(=O)N1CC(C)OC(C)C1 (stereo unspecified) | i | 0.9 | / | / | 101 | 0 | /
Cn1c(C(=O)O)c(CC(=O)N2CCC(Cc3ccccc3)CC2)c2ccccc21 | i | 1 | 14 | 83 | 101 | 0 | 0.1
COc1ccc(C(=O)OCC(=O)Nc2ccc(F)c(F)c2)cc1OC | i | 0.97 | -35 | 104 | 97 | 6 | -1.8
CC(NC(N)=O)C(=O)NCC(=O)OCc1ccccc1 (stereo unspecified) | i | 1.1 | / | / | 101 | -3 | /
COc1cc(/C=N/NC(=O)CN(Cc2ccccc2)S(=O)(=O)c2ccc3c(c2)OCCO3)ccc1O | i | 0.88 | / | / | 117 | -7 | 1.0
Cc1ccc(C2=NOC(=O)/C2=C\C=C\c2ccccc2)cc1 | i | 0.74 | / | / | 96 | 1 | /
CN(C(=O)COC(=O)c1ccc(S(=O)(=O)N2CCCC2)cc1)c1ccccc1 | i | 0.93 | -61 | 56 | 96 | -3 | /
O=C(NCc1ccco1)c1nn2cccnc2c1Cl | i | 0.98 | 0 | 126 | 98 | 2 | /
CC(NCc1ccccc1OC1CCCC1)c1ccccc1 (stereo unspecified) | i | 0.92 | / | / | 102 | / | /
COc1ccc(C)cc1NC(=O)C1CCCN1S(=O)(=O)c1ccc2c(c1)CCC(=O)N2 (stereo unspecified) | i | 0.98 | / | / | 104 | 2 | -2.7
OC(COc1ccc2c(c1)OCO2)CN1CCN(c2ccccc2)CC1 (stereo unspecified) | i | 0.96 | 33 | 184 | 105 | -9 | /
O=C(Cc1ccc(F)cc1)N/N=C/c1ccc2c(c1)OCO2 | i | 0.99 | / | / | 98 | -8 | /
CC(C)CCn1c(-c2nonc2N)nc2ccccc21 | i | 0.52 | 19 | 80 | 99 | -1 | -3.3
Cn1c(SCc2ccc(F)cc2)nnc1-c1cccs1 | i | 1 | 71* | 79* | 107 | -6 | 0.2

Some of the entries so far, in CSV form:
Molecule,HSV augment,HSV augment primary fold,INS promoter inh,INS promoter inh cell count,RGS16-Gao HTS,PKD1 kinase inh,GALR2 agonist
COc1ccc(C2C3=C(CC(C)(C)CC3=O)Nc3c2c(=O)[nH]c(=O)n3Cc2ccccc2)cc1OC (stereo unspecified),i,1.1,19,98,99,4,0.1
COc1ccccc1Nc1nc(N)nc(CN2CCOCC2)n1,i,0.92,/,/,99,4,-2.1
Cc1ccc(S(=O)(=O)N2CCOCC2)cc1NC(=O)CNCc1ccccn1,i,0.89,/,/,107,/,/
NC(=O)c1cccc(S(=O)(=O)N2CC(c3ccccc3)CC2=O)c1 (stereo unspecified),i,1.1,/,/,94,-8,-1.4
CC(C)Nc1nc2cccnc2s1,i,1,/,/,98,/,/
CCC(c1nnnn1Cc1ccccc1)N1CCN(c2ccc(OC)cc2)CC1 (stereo unspecified),i,0.88,60,104,108,1,/
Cc1occc1C(=O)Nc1nn[nH]n1,i,0.95,92*,17*,105,-1,-1.4
O=C(O)c1ccc2c(c1Sc1ccccc1)C(=O)c1ccccc1C2=O,i,1,/,/,104,/,/
COc1ccc(C(C)C)cc1S(=O)(=O)N1CC(C)OC(C)C1 (stereo unspecified),i,0.9,/,/,101,0,/
Cn1c(C(=O)O)c(CC(=O)N2CCC(Cc3ccccc3)CC2)c2ccccc21,i,1,14,83,101,0,0.1
COc1ccc(C(=O)OCC(=O)Nc2ccc(F)c(F)c2)cc1OC,i,0.97,-35,104,97,6,-1.8
CC(NC(N)=O)C(=O)NCC(=O)OCc1ccccc1 (stereo unspecified),i,1.1,/,/,101,-3,/
COc1cc(/C=N/NC(=O)CN(Cc2ccccc2)S(=O)(=O)c2ccc3c(c2)OCCO3)ccc1O,i,0.88,/,/,117,-7,1.0
Cc1ccc(C2=NOC(=O)/C2=C\C=C\c2ccccc2)cc1,i,0.74,/,/,96,1,/

More results follow.
SMILES | HSV augment | HSV augment primary fold | INS promoter inh | INS promoter inh cell count | RGS16-Gao HTS | PKD1 kinase inh | GALR2 agonist
Cc1cccc(NC(=O)C2CCN(S(=O)(=O)c3cccs3)CC2)n1 | i | 1.1 | 39 | 72 | 95 | -1 | -1.3
CC(=O)C(=Cc1ccc(C(=O)O)cc1)C(C)=O | i | 0.98 | / | / | 97 | -5 | /
COc1ccc(OC)c2[nH]c(=O)c(CCNC(=O)c3ccc4c(c3)OCO4)cc12 | i | 0.94 | -9 | 106 | 99 | -2 | /
CCS(=O)(=O)c1ccc(C(=O)NC2CC2)c(Cl)c1Cl | i | 1.1 | -29 | 43 | 99 | -6 | /
c1ccc(CN2C3=NCCCN3c3ccccc32)cc1 | i | 1.1 | 27 | 79 | 86 | -2 | -0.2
Cc1cccc(C2c3[nH]c4ccccc4c3CCN2C(=O)Cc2nc(-c3ccccc3)n[nH]2)n1 (stereo unspecified) | i | 0.97 | / | / | 93 | -6 | /
CC(C)C(=O)Nc1cccc(NC(=S)NC(=O)C(c2ccccc2)c2ccccc2)c1 | i | 0.72 | 6 | 55 | 99 | -27 | 0.1
Cc1ccsc1C(=O)OCC(=O)N1CCN(C(=O)c2ccco2)CC1 | i | 0.98 | / | / | 103 | -2 | /
COc1cccc(C2=NOC(C(=O)NCc3ccccc3)C2)c1 (stereo unspecified) | / | / | 36 | 84 | 100 | 14 | -0.6
O=C1CCCC(=O)N1c1ccc(N2CCN(c3ccccc3)CC2)c([N+](=O)[O-])c1 | i | 0.95 | -27 | 117 | 104 | -9 | -1.4
CCCCN(C)C(=O)CSc1nc(NCc2ccc(OC)cc2)c2ccccc2n1 | i | 0.78 | 0 | 116 | 92 | 0 | 1.9
CC(C)CNS(=O)(=O)c1ccc(CCC(=O)NCc2ccncc2)cc1 | i | 0.99 | / | / | 97 | 0 | /
COc1ccc(NC(C(=O)Nc2cccc(C(C)=O)c2)c2ccccc2)cc1 (stereo unspecified) | i | 1.1 | 4 | 60 | 97 | 3 | -2.6
COC(=O)c1cc(OC)ccc1-c1ccc(OC)cc1 | i | 0.92 | -26 | 126 | 104 | -6 | -2.0
COc1cc(C(=O)Oc2c(CN3CCOCC3)cc(Cl)c3cccnc23)cc(OC)c1OC | / | / | / | / | 98 | -9 | -1.0
O=C(Nc1ccccc1C(=O)N1CCOCC1)c1ccncc1 | i | 0.81 | 16 | 60 | 101 | 3 | -1.9
COc1ccccc1NC(=O)CNC(=O)c1ccc(F)cc1 | i | 0.82 | 31 | 104 | 102 | -2 | -0.9
Cc1ccc(C)c(-n2c(SCC(N)=O)nnc2-c2ccccn2)c1 | i | 1.1 | 26 | 78 | 114 | -10 | 0.2
COc1cccc(C2C3(C#N)C(N)=NC(OC)(OC)C23C#N)c1 (stereo unspecified) | i | 0.92 | 9 | 169 | 114 | -7 | -0.8
CCOc1cc(C=O)ccc1OCC(N)=O | i | 1 | / | / | 106 | -2 | /
CCOC(=O)C1=C(N)N(c2ccc(N3CCCCC3)cc2)C(=O)C1 | i | 0.98 | -24 | 110 | 96 | 4 | -0.2
Cc1ccc2[nH]c(C)c(CC(=O)O)c2c1 | i | 0.82 | -4 | 115 | 104 | 8 | -1.7
CCOc1cccc(-c2nn3c(-c4ccccn4)nnc3s2)c1 | i | 0.73 | 38 | 121 | 101 | -4 | -0.4
COc1ccc(CCNC(=O)c2cc(C(=O)c3cc(Cl)ccc3O)cn(CCc3ccc(OC)cc3)c2=O)cc1 | i | 0.96 | -18 | 99 | 148 | -5 | -2.4
NC(=S)Nc1cnc2ccccc2c1 | i | 1.1 | 23 | 151 | 99 | -1 | -0.5

(list continues)
SMILES | HSV augment | HSV augment primary fold | INS promoter inh | INS promoter inh cell count | RGS16-Gao HTS | PKD1 kinase inh | GALR2 agonist
CCN(CC)S(=O)(=O)c1ccc2c(c1)c(=O)c(C(=O)NCCOC)cn2C | i | 0.88 | -30 | 72 | 101 | 1 | 0.4
CCNc1nc(NC(C)C)nc(NS(=O)(=O)c2ccc(Cl)cc2)n1 | i | 0.93 | 29 | 141 | 100 | -9 | 1.7
COc1ccc(Cl)cc1C(=O)NNC(=S)NC1CCCCC1 | i | 0.92 | / | / | 105 | / | /
O=C(CCC(=O)N1CCN(S(=O)(=O)c2ccc3ccccc3c2)CC1)Nc1cc(Cl)cc(Cl)c1 | i | 0.8 | / | / | 99 | -3 | /
Cc1coc(C)c1C(=O)CC1(O)C(=O)N(CCc2ccccc2)c2ccccc21 (stereo unspecified) | i | 0.83 | 39 | 136 | 97 | -10 | -1.7
c1ccc(CN2CCCC3(CCCN(Cc4nc(COc5ccccc5)no4)C3)C2)cc1 (stereo unspecified) | i | 0.83 | / | / | 104 | 6 | /
COc1ccc2c(c1)c(=O)c(C(=O)O)c(-c1ccc3c(c1)OCO3)n2C | i | 1.1 | 46 | 117 | 107 | 12 | -0.2
Cn1c(=O)c2cn(Cc3ccc(Cl)cc3)cc2n(C)c1=O | i | 0.92 | -59 | 95 | 102 | -1 | -1.5
COCCn1c(COc2ccc(Cl)cc2)nnc1SCC(N)=O | i | 1.1 | 3 | 86 | 94 | -3 | 0.5
COc1ccc(CNC(=O)CSc2ncnc3nc[nH]c23)cc1 | i | 0.94 | 18 | 92 | 110 | -5 | -2.7
Cc1cc(C(=O)NC(C)C2CCCO2)no1 (stereo unspecified) | i | 0.89 | / | / | 79 | 2 | /
O=C(Cn1nnc(N2CCCC2)n1)N/N=C/c1ccc(Cl)cc1 | i | 1.1 | / | / | 100 | / | /
c1ccc2c(c1)nnn2Cc1nnc2sc(-c3ccc4c(c3)OCCO4)nn12 | / | / | 14 | 151 | 77 | -6 | 0.5
c1ccc(CNc2nc(N3CCN(Cc4ccccc4)CC3)nc3ccccc23)cc1 | i | 0.76 | / | / | 98 | / | /
CC(C)(C)Nc1nc(C(N)=O)nc(N2CCOCC2)n1 | i | 0.99 | 72 | 100 | 105 | -3 | 0.3
COc1cc(/C=N/NC(=O)COc2ccc(C)cc2)ccc1OC(=O)c1cccs1 | i | 1.1 | / | / | 98 | 3 | -0.4
COCc1cc(=O)[nH]c2cc(NC(=O)C3CC3)c(C)cc12 | i | 0.89 | -87 | 78 | 100 | 1 | -2.7
CC(=O)c1c(C)[nH]c(C(=O)COc2cc(C)cc(C)c2)c1C | i | 0.71 | -28 | 145 | 92 | -6 | -1.8
CCc1ccc(OCC(=O)NC(C)(C)C)cc1 | i | 0.99 | -26 | 110 | 108 | -10 | 0.3
CCOc1ccc(OCC)c(NC(=O)CN2CCN(c3cccc(C)c3)CC2)c1 | / | / | 12 | 83 | 104 | -1 | 2.1
O=C(N/N=C/c1ccc(O)cc1)c1[nH]c2ccc(Br)cc2c1-c1ccccc1 | i | 0.62 | 33 | 12 | 73 | -5 | 4.7
Cc1c(N=NC2=C(O)CCCC2=O)c(=O)n(-c2ccccc2)n1C | i | 1 | -47 | 107 | 91 | -3 | /
O=C(NCCO)C(=O)c1c(-c2ccc(Cl)cc2)cc2ccccn12 | i | 0.98 | / | / | 102 | 2 | /
